# Screening data deposited in PubChem by several laboratories.
# rRNA inh HTS – inhibits bacterial ribosomal RNA function over humanized ribosomes; 1.6% of 350,000 active; E. coli WT GFP vs humanized-ribosome RFP mutants, fluorescence, 24 h; active compounds read low; DMSO median 0, no signal -100; GFP signal change (wild-type ribosome), % (no concentration beside the values);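 active means significant combined selectivity score with lowered wild-type GFP, culture density cut under 30%, mutant RFP and density less affected; inactive means any of these conditions unmet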; further: one replicate is shown; some compounds called inactive have numbers as strong as hits
# ALR inh – human ALR oxidase inhibition via reduced H2O2. 3.8% of 290,000 active. P55789. inhibition, % (no concentration beside the values). purified ALR, DTT oxidation, H2O2 HRP-luminol luminescence. AID 485317;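 active means mean and each replicate at 75% or more; inconclusive means only one of the two met; inactive means neither met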;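 further: stock transfer was 7.5 nL into about 7.5 µL; 0% = neutral wells and 100% = wells with inactivated enzyme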
# Target sequence (P55789 whole entry, looked up): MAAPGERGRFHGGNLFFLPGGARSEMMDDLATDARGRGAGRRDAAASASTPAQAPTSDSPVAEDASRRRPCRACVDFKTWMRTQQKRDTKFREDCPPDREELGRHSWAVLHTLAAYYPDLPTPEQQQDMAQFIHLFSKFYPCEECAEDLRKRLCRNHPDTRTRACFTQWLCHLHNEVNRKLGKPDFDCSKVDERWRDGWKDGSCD
# FGF22 binding – FGF22 (human) thermal shift binding; Q9HCT0; recombinant FGF22 thermal shift, SYPRO orange fluorescence; percent of sucrose octasulfate shift, DMSO zero; calls only at 9.99 µM; 1.5% of 340,000 active;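 active means melting point raised past a set limit in the mean and every replicate; inconclusive means no clear call; three in four hits are not shown here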
# Target sequence (Q9HCT0 whole entry, looked up): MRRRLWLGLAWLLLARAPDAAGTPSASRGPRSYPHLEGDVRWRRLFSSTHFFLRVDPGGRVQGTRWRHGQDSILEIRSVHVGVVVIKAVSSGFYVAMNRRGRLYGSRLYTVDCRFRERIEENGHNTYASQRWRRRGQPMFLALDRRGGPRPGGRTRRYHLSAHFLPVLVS
# Vif TR-FRET – inhibitors of Vif binding to APOBEC3G peptide, primary screen, biochemical, TR-FRET, GST-Vif 1-94, biotin-A3G peptide, dose response retest (AID 1117319); TR-FRET GST-Vif / biotin-A3G peptide binding; higher % means a stronger effect; test concentration not given here; strong numbers were not always called active; 0.57% of 260,000 active; inhibition, %, or IC50 in µM where a hit was titrated;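 active means above the screen mean plus three standard deviations and confirmed in dose response; inconclusive means results disagree or hit not tested in dose response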;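 further: Vif residues 1-94 fused to GST binding biotinylated APOBEC3G peptide 110-148; 0% = full assay without inhibitor and 100% = GST in place of GST-Vif; retest series ran down from 100 µM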
# AF4-AF9 inh – blocks AF4 peptide binding to human AF9. P42568. AlphaScreen, biotin-AF4 peptide binding to FLAG-AF9. inhibition, % at 10 µM. 0.47% of 350,000 active;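 active means every replicate reaching a set inhibition limit, whatever the replicate mean, cut at about 25% in these data; inconclusive means mean inhibition reaches that limit but some replicates miss it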;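 further: 0% = plate neutral control median and 100% = total signal loss; the record names both 10 and 1 µM as test concentration; the first replicate is given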
# Target sequence (P42568 whole entry, looked up): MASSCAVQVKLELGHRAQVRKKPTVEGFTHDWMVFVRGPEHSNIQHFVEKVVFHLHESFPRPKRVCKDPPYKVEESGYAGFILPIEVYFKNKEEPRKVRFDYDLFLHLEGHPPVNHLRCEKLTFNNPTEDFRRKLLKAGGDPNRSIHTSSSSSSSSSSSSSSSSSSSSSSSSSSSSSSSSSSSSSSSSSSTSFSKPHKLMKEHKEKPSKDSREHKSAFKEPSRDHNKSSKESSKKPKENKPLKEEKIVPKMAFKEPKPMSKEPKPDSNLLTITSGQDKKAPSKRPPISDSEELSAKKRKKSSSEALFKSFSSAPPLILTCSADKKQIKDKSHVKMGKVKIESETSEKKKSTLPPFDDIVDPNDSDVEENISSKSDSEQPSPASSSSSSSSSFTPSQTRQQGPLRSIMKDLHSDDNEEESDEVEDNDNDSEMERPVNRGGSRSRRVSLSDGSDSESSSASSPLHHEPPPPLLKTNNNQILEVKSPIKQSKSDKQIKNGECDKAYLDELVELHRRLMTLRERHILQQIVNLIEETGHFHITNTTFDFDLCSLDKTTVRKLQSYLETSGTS
# Ecoli growth – inhibitors of Escherichia coli growth; OD600, 23 h; active compounds read low; OD600 absorbance (test concentration not listed); 0.21% of 330,000 active; AID 1053175;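 active means OD600 absorbance below the run mean of sample wells minus 3.6 SD, in any replicate, cut at about 0.56 in these data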;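 further: stock transfer was 300 nL into about 60 µL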
# HNF4A DNA FP – change in binding of human HNF4 alpha to DNA | P41235 | HNF4a-FITC DNA binding, fluorescence polarization, 1 h | activity change, % at 10 µM | 0.3% of 360,000 active | AID 1224865; in the data active means activity change above about 30%, passing the limit was not always enough;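 further: controls were the assay level and a saturating level of protein; the project sought stronger binding though the title names inhibitors; some compounds called inactive have numbers as strong as hits; positive values seem to mean higher polarization but the record does not say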
# rRNA inh HTS OD600 – also measured in rRNA inh HTS; calls as there; OD600 change, %; measured here: OD600 growth;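 optical density of the mix in the first replicate; 0 = DMSO median and -100 = no signal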
# rRNA inh HTS RFP – further read-out of rRNA inh HTS, marked with its call; RFP signal change, %; measured here: RFP humanized mutant strains;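 first replicate; 0 = DMSO median and -100 = no signal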
# Numbers without * were called inactive; i = inactive; u = inconclusive; x = not tested or not shown; + = active, no number; & = joins results of further samples.
SMILES,rRNA inh HTS,rRNA inh HTS OD600,rRNA inh HTS RFP,ALR inh,FGF22 binding,Vif TR-FRET,AF4-AF9 inh,Ecoli growth,HNF4A DNA FP
COc1ccc(N(CC(O)Cn2c3ccccc3c3ccccc32)S(=O)(=O)c2ccccc2)cc1 (configuration not stated),x,x,x,1,x,4%,x,0.72,-0.1
CC1(C)c2[nH]c3ccccc3c2C[C@@H]2C(=O)N(Cc3ccccc3Cl)C(=O)N21,2,3,-6.0,-12,i,x,5.1,x,-5.8
CCN(CC)CCOC(=O)c1ccc(N=CC2=C(O)CC(C)(C)CC2=O)cc1,3,-1,2.6,x,i,x,-9.3,0.7,2.5
CCN(CC)S(=O)(=O)c1ccc(N2CCN(C)CC2)c(NC(=O)Nc2ccccc2F)c1,0,7,4.8,-15,i,x,3.1,0.67,1.9
COc1cc(C(O)c2nc3ccccc3s2)cc(OC)c1OC (configuration not stated),-40,-34,-7.6,-1,i,12%,-14,0.64,0.7
O=c1c2ccccc2nc(-c2ccccc2)n1CCCN1CCOCC1,x,x,x,1,x,5%,x,0.66,6.2
CC(=O)N1[C@@H]2Cn3c(cccc3=O)[C@H]1[C@@H](C(=O)N1CCc3ccccc3C1)[C@@H]2CO,4,4,-2.2,x,i,x,-4.8,x,x
COc1ccc(C(CNC(=O)CCNS(=O)(=O)c2ccccc2C(F)(F)F)N2CCOCC2)cc1 (configuration not stated),11,12,-1.2,x,i,0%,1.0,0.69,0.2
CC(=O)c1sc(NC(=O)c2cc(=O)c3ccccc3o2)nc1C,-13,-3,-2.1,24,+,31%,-1.4,0.65,2.8
OC[C@@H]1[C@H](c2ccccc2)C2(CN(Cc3nccs3)C2)N1CC1CCOCC1,-1,4,-2.3,x,i,x,-2.6,x,x
CN1CCN(NC(=O)c2ccc(Br)s2)CC1,8,-2,-2.2,62,i,u,1.9,0.71,-1.8
COc1ccc2c3c(n(C)c2c1)[C@H](CO)N(C(=O)C1CCCC1)CC31CCN(CC2CCCC2)CC1,1,-6,-0.7,x,i,x,5.1,x,x
C[C@@H](O)C#Cc1cnc2c(c1)C(=O)N([C@@H](C)CO)C[C@H](C)[C@H](CN(C)C(=O)c1ccncc1)O2,3,7,-1.2,x,i,x,-1.2,x,x
O=S(=O)(Cc1nnnn1-c1ccccc1)c1ccc(Cl)cc1,9,10,0.1,-2,i,-4%,-1.7,0.71,1.4
COc1ccc(-n2c3c(cc(C(=O)Nc4ccc(C)cc4)c2=O)C(=O)CCC3)cc1,x,x,x,x,x,-9%,x,0.72,-3.0
Cn1nc(-c2ccc(N3CCOCC3)c(NS(=O)(=O)c3ccccc3)c2)c2ccccc2c1=O,17,7,1.9,-10,i,2%&5%,1.9,0.68,0.7
COc1ccc(-n2c(C)cc(/C=C3\SC(=S)NC3=O)c2C)cc1,-4,-3,-0.3,24,i,u,1.1,0.73,40*
CN(C)c1ccc2c(c1)[C@H]1C[C@H](CC(=O)NCc3cc(F)ccc3F)O[C@@H](CO)[C@H]1O2,-1,3,0.5,x,i,x,-4.3,x,x
Clc1ccc(-c2nnc(-c3cccc4ccccc34)o2)cc1Cl,9,13,-1.2,-6,i,u,-3.8,0.68,2.1
CCN1CCN(C(=O)N(c2ccccc2)c2ccccc2)CC1,2,11,-2.9,-1,i,-6%,-4.1,0.69,2.1
CCCNC(=O)N1C[C@H](C)[C@@H](OC)CN(C)C(=O)c2ccc(NC(=O)CCC)cc2OC[C@H]1C,1,2,-1.3,x,i,x,-2.9,x,x
Cc1cccc(N2O[C@H]3C=CC2CCCC3)n1,9,4,-1.0,x,i,-4%,-0.3,0.72,-0.3
CCOc1ccc(S(=O)(=O)N2CCCC(C(=O)NC3CC3)C2)cc1Cl (configuration not stated),11,11,1.4,-6,i,-5%,-7.0,0.62,3.0
CC(C)(C)c1cnnn1-c1ccc(NC(=O)c2ccc(Br)o2)cc1,x,x,x,-10,x,8%,x,0.73,0.5
Cc1noc(C)c1NC(=O)Nc1ccc2c(c1)CC(=O)N([C@@H](C)CO)C[C@H](C)[C@H](CN(C)Cc1ccc(C(=O)O)cc1)O2,1,6,-3.3,x,i,x,-3.7,x,x
# Next section.
SMILES,rRNA inh HTS,rRNA inh HTS OD600,rRNA inh HTS RFP,ALR inh,FGF22 binding,Vif TR-FRET,AF4-AF9 inh,Ecoli growth,HNF4A DNA FP
Cc1ccc(S(=O)(=O)NCc2ccncc2)cc1C,1,1,-1.2,0,i,-8%,-2.5,0.66,-2.1
N#CCN(CC#N)C(=O)C1c2ccccc2Oc2ccccc21,-7,-10,2.2,30,i,x,-7.5,x,-0.4
Cc1c(C(=O)N2CCC3(CC2)CC(=O)c2ccccc2O3)cccc1[N+](=O)[O-],0,0,-1.7,-2,x,x,3.0,x,1.5
O=C(CN1C(=O)C2CC=CCC2C1=O)NCc1cccs1 (configuration not stated),9,16,3.6,-1,i,-3%,1.4,0.7,-1.0
O=C(O)CCc1n[nH]c(=S)[nH]c1=O,3,9,-1.5,5,i,u,1.3,0.75,-1.2
CS(=O)(=O)N1CCC(C(=O)NCCc2ccccc2)CC1,21,9,-2.3,-4,x,68%,x,0.71,4.5
C[C@@H]1CN([C@@H](C)CO)C(=O)c2cccc(NS(=O)(=O)c3ccccc3)c2O[C@@H]1CN(C)C(=O)Nc1ccc(F)cc1,-6,-12,-2.6,x,i,x,-3.7,x,x
COc1ccc(S(=O)(=O)N2CCCN(CCC(=O)Nc3cccc(C(F)(F)F)c3)CC2)cc1,x,x,x,-1,x,-3%,x,0.72,0.3
Cc1cc(C)n2ncc(C(=O)Nc3ccc(Cl)c(Cl)c3)c2n1,5,3,0.7,-3,i,5%,2.1,0.74,2.9
CCOn1c(=O)c(-c2cc(OC)ccc2OC)[n+]([O-])c2ccccc21,-4,7,-2.4,3,i,x,-0.5,0.67,1.1
Cc1ccc([C@H]2C[C@H](O)[C@@H](n3cc(COC(=O)c4ccccc4)nn3)CN2Cc2cccs2)cc1,-1,3,-0.1,x,i,-4%,4.8,x,1.6
C[C@H]1CN([C@@H](C)CO)C(=O)c2cc(NC(=O)c3ccncc3)ccc2O[C@@H]1CN(C)C(=O)Nc1ccccc1,3,12,-1.8,x,i,x,-3.4,x,x
COc1cc(Br)cc(C(c2c(C)n(C)n(-c3ccccc3)c2=O)c2c(C)n(C)n(-c3ccccc3)c2=O)c1O,-5,3,-1.2,5,i,x,-2.3,0.66,0.8
CC(C)CN(C(=O)COC(=O)/C=C/c1ccccc1)C1CCS(=O)(=O)C1 (configuration not stated),x,x,x,0,i,-5%,-0.6,0.66,-0.8
O=C(CS(=O)(=O)c1cn(CC(=O)N2CCOCC2)c2ccccc12)Nc1ccccc1,22,32,9.1,17,i,-1%,1.5,0.67,2.4
Clc1ccc(-c2nc3ccc(Br)cn3c2Cc2ccccc2)cc1,-43,-70,-5.2,x,i,-3%,-0.8,x,4.2
O=C(Nc1cccc(S(=O)(=O)Nc2ccc(Cl)cc2)c1)c1ccc2c(c1)OCCO2,-29,-50,39,-2,i,4%,-0.7,0.68,4.2
Cc1cc(=O)n(Cc2ccccc2)c2c(C)cccc12,5,24,0.7,-8,i,x,-1.3,0.7,4.8
Nc1nnc(SCC(=O)Nc2cccc(S(N)(=O)=O)c2)s1,20,15,3.7,-3,i,3%,-1.8,0.66,1.8
COc1ccc(Cc2nc3ccc(C(=O)N(C)CCCN4CCOCC4)cc3o2)cc1,1,6,0.9,-5,i,x,0.9,0.68,-1.1
Cc1cccc2c1NC(=O)C2=O,11,20,6.4,x,i,32%,2.4,0.69,-11
O=C(CSc1nc2ccccc2c(=O)n1NC(=O)Cc1ccccc1)NCCc1ccccc1,x,x,x,-4,x,1%,x,0.69,0.4
N#Cc1ccc[n+](CC(=O)c2ccc(Cl)cc2)c1,7,10,3.5,-7,i,2%,3.5,0.6,9.7
COc1ccc(NC(=O)N(C)C[C@H]2OCCCC[C@@H](C)Oc3ccc(NC(=O)CCCN(C)C)cc3C(=O)N([C@@H](C)CO)C[C@H]2C)cc1,1,-2,-0.4,x,i,x,2.6,x,x
Cc1cc(C(=O)COC(=O)C2=NNC(=O)CC2)c(C)n1CCc1ccccc1,10,-4,4.8,10,i,-2%,3.0,0.64,6.1

# The closing 2 records of the part before lead into the next:
SMILES,rRNA inh HTS,rRNA inh HTS OD600,rRNA inh HTS RFP,ALR inh,FGF22 binding,Vif TR-FRET,AF4-AF9 inh,Ecoli growth,HNF4A DNA FP
COc1ccc(NC(=O)N(C)C[C@H]2OCCCC[C@@H](C)Oc3ccc(NC(=O)CCCN(C)C)cc3C(=O)N([C@@H](C)CO)C[C@H]2C)cc1,1,-2,-0.4,x,i,x,2.6,x,x
Cc1cc(C(=O)COC(=O)C2=NNC(=O)CC2)c(C)n1CCc1ccccc1,10,-4,4.8,10,i,-2%,3.0,0.64,6.1
COc1cc(C(=O)N2CCN(C(=O)C3CC3)CC2)cc(OC)c1OC,x,x,x,0,x,20%,x,0.76,-2.5
COc1ccc(S(=O)(=O)Nc2ccc3c(c2)C(=O)N([C@H](C)CO)C[C@H](C)[C@@H](CN(C)Cc2ccc(C(=O)Nc4ccccc4N)cc2)O3)cc1,2,11,1.5,x,i,x,-2.2,x,x
COC(=O)C[C@H]1CC[C@H]2[C@@H](COc3ccc(NC(=O)Cc4cccs4)cc3C(=O)N2C)O1,0,-1,4.0,x,i,x,1.0,x,x
COc1ccccc1NC(=O)C(=O)N1N=C(C(C)C)CC1(O)C(F)(F)F (configuration not stated),x,x,x,-6,x,-1%,x,0.63,-1.1
COc1ccc(/C=C/c2nc(S(=O)(=O)c3ccccc3)c(NCCCN(C)C)o2)cc1OC,7,10,-3.3,11,i,2%,-5.1,0.67,-17
CO[C@@H]1CN(C)C(=O)c2ccc(NC(=O)C3CC3)cc2OC[C@@H](C)N(Cc2nccs2)C[C@H]1C,-2,-4,-2.1,x,i,x,-5.9,x,x
COc1ccc(NC(=O)CC2Oc3ccc(C)cc3NC2=O)cc1 (configuration not stated),9,12,2.6,-8,i,3%,2.3,0.71,1.3
CCOc1ccc(C(C(=O)NCC2CCCO2)N(C(=O)c2snc(C(N)=O)c2N)c2cccc(F)c2)cc1 (configuration not stated),2,6,1.6,-1,i,x,1.8,0.65,2.3
C[C@H]1CN([C@@H](C)CO)C(=O)c2cc(NC(=O)Nc3ccccc3)ccc2O[C@H]1CN(C)S(=O)(=O)c1cn(C)cn1,3,-2,-2.9,x,i,x,-1.6,x,x
CCOC(=O)C1CCCN(S(=O)(=O)c2cccc3cccnc23)C1 (configuration not stated),x,x,x,x,x,-5%,x,0.72,2.4
CCC(C(=O)N1CCN(c2ccccc2OC)CC1)c1ccccc1 (configuration not stated),1,-5,-0.9,55,i,0%,6.5,0.67,0.3
CC(NC(=O)NC(=O)c1ccc(Cl)cc1)c1ccccc1 (configuration not stated),2,5,-1.4,5,i,5%,-6.1,0.64,-1.0
O=C(N/N=C/c1ccc[nH]1)c1ccc2c(c1)OCO2,16,9,4.2,-8,i,-2%,-2.4,x,-1.9
COc1cc(C(=O)c2ccccc2)c([N+](=O)[O-])cc1OC,-4,0,0.3,-14,i,2%,2.7,0.67,-1.4
CCc1ccc(S(=O)(=O)N2c3ccc(C)cc3C3CN(C)CCC32)cc1 (configuration not stated),1,-6,9.4,3,i,u,6.6,0.71,3.5

# Nothing new here: an excerpt of the list.
SMILES,rRNA inh HTS,rRNA inh HTS OD600,rRNA inh HTS RFP,ALR inh,FGF22 binding,Vif TR-FRET,AF4-AF9 inh,Ecoli growth,HNF4A DNA FP
COc1cc(C(=O)c2ccccc2)c([N+](=O)[O-])cc1OC,-4,0,0.3,-14,i,2%,2.7,0.67,-1.4
CCc1ccc(S(=O)(=O)N2c3ccc(C)cc3C3CN(C)CCC32)cc1 (configuration not stated),1,-6,9.4,3,i,u,6.6,0.71,3.5

# An excerpt; count on the stated rates, not on these rows.
